Screening data (PubChem BioAssay)
HCMV NEC inh: inhibitors of HCMV UL50-UL53 nuclear egress complex interaction; HTRF UL50-UL53 interaction, normalized percent inhibition; inhibition, % (no concentration beside the values); 0.15% of 190,000 active; AID 1918969;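 active = both replicates at 50% or more, plus weaker picks with an unusually low signal ratio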;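 note: stock transfer was 100 nL into about 20 µL; 0% = negative control wells and 100% = wells with untagged competitor protein; inactives centre near -12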
Sa growth inh: blocks Staphylococcus aureus growth; S. aureus RN4220 growth, OD600, 20 h, 42 °C; hits give low values; 0.53% of 170,000 active; AID 720641; relative growth, % (no concentration beside the values);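 active = growth at 42 °C up to 50% and 20 or more points under that at 30 °C, or under 10% at both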;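 note: 300 nL library stock went into each well; scaled to the means of positive and negative controls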
GIV Gai3 FP: blocks GIV peptide binding to rat Galpha-i3; P08753; Galpha-i3/FITC-GIV peptide fluorescence polarization, 90 min; hits give low values; scaled: aluminum fluoride 0%, vehicle 100%; percent of control (FP), % (no concentration beside the values); 0.42% of 210,000 active; AID 1224905;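 active = replicate mean at 85% of control or lower, very high polarization wells dropped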;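 note: wells of about 15 µL received 100 nL stock; the first replicate is given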
Target sequence (P08753 whole entry, looked up): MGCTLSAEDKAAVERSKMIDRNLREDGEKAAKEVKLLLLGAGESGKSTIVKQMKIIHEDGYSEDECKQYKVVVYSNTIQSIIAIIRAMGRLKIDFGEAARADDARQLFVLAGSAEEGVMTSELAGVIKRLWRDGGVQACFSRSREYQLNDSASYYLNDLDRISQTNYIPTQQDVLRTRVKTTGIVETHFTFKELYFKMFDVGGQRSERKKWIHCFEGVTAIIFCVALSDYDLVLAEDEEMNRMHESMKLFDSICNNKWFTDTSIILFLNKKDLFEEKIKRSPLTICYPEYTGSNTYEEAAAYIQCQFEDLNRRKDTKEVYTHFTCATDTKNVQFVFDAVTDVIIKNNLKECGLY
Sa growth inh second temp: second read-out of Sa growth inh, no call of its own (marks repeat the call); relative growth, %; measured here: growth at 30 °C;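 optical density after 20 h as mean of two plates; 100% = untreated growth and lower means inhibition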
* marks the source's active call; other numbers are inactive results; nt = no result given; & = joins results of further samples.

SMILES | HCMV NEC inh | Sa growth inh | Sa growth inh second temp | GIV Gai3 FP
Cc1ccc(NC(=O)Cn2ccccc2=O)cc1 | -5 | 103 | 98 | nt
O=C(NC1CC2CCCC(C1)N2C(=O)NCc1ccccc1)C1CC1 (stereo not given) | -14 | 109 | 86 | 103
O=C(COc1ccccc1)Nc1nnc(S(=O)(=O)N2CCCC2)s1 | -5 | 101 | 91 | 103
Cc1ccc2oc(=O)c3cc(C(=O)N(Cc4ccco4)C4CCCCC4)sc3c2c1 | nt | 92 | 91 | 101
Cc1nc2ccc(NC(=O)c3ccc(C#N)cc3)cc2s1 | -4 | nt | nt | 100
COc1ccc2oc(=O)cc(CN3CCN(c4ccccc4OC)CC3)c2c1 | -28 | 94 | 85 | 97
O=C(CN1C(=O)c2ccccc2C1=O)OC(C(=O)NC1CCCC1)c1ccncc1 (stereo not given) | -8 | 107 | 110 | 107
O=C(O)c1oc2ccccc2c1CSC1=NCCS1 | -20 | 85 | 89 | nt
Cc1ccc(-c2nn(CC(=O)NC3CCCC3)c3c2cnc2ccc(F)cc23)cc1C | nt | 82 | 92 | 97
NS(=O)(=O)c1ccc(NC(=O)CSc2ccccn2)cc1 | -12 | 95 | 79 | 102
CN(C)c1ccc(-c2nn3c(CSc4ccccc4)nnc3s2)cc1 | -8 | nt | nt | 111
COc1ccc2c(c1)CCc1c(C(=O)Nc3cc(C)ccc3O)noc1-2 | 4&-7 | 106 | 95 | 96&109
Cc1ccc(C)c(N2CCN(S(=O)(=O)c3c(C(=O)N4CCC(C)CC4)c(C)n(C)c3C)CC2)c1 | nt | 108 | 74 | 103
COc1ccc(-c2nc(SCc3cc(=O)c4cc(C(N)=O)ccc4[nH]3)n[nH]2)cc1 | 2 | nt | nt | 97
Cc1cc(C)n(C(=O)C2COc3ccccc3O2)n1 (stereo not given) | -11 | 94 | 92 | 98
COc1ccc(OC)c(NS(=O)(=O)c2cc(-c3ccc(=O)[nH]n3)ccc2Cl)c1 | -63 | nt | nt | 104
FC(F)(F)c1ccnc(Oc2ccc(I)cc2)n1 | nt | 93 | 85 | 102
O=C(Nc1ccc(-c2nc3ccccc3o2)c(O)c1)c1cc(Cl)ccc1Cl | -34 | 94 | 96 | 102
CC(C)CC(NC(=O)c1ccc(C#CC(C)(C)O)s1)C(=O)O (stereo not given) | 14 | 104 | 92 | 111
CCc1cccc(NC(=O)CN(c2ccc(C)cc2)S(=O)(=O)c2cccs2)c1 | -12 | 110 | 85 | 102
CC1=NN(C(=O)c2cccnc2)C(C)(O)C1 (stereo not given) | -26 | 83 | 89 | 94
CC(C)Oc1ccc(C(=O)N2CCC(c3nc4ccccc4o3)CC2)cc1 | 5 | 90 | 78 | 107
CCCCN1C(=O)SC(Nc2ccc(F)cc2)C1=O (stereo not given) | -27 | 97 | 94 | 108
CC(C)Cn1c(=O)c2sccc2n2c(CCC(=O)NCCCOC(C)C)nnc12 | -3 | nt | nt | 96
COC(=O)c1ccc(CSc2nnc(-c3ccccc3)n2-c2ccccc2)o1 | -17 | 96 | 82 | nt
Cc1cc(Nc2ccc(C(=O)Nc3ccc4c(c3)OCO4)cc2)n2ncnc2n1 | -28 | 88 | 66 | 107&99
COC(=O)N/N=C/C1CCCCC1 | 3 | 105 | 94 | nt
O=C(O)C1Nc2c(I)cccc2C2C=CCC12 (stereo not given) | 14 | 109 | 64 | 43*
CCOc1ccc(CN2C(=O)c3ccccc3Sc3ccc(C(=O)O)cc32)cc1 | nt | 108 | 55 | 99
CCC(C)NC(=O)Cn1c(=O)n(CC2CCC(C(=O)N3CCCCC3)CC2)c(=O)c2sccc21 (stereo not given) | -8 | nt | nt | 105
COc1ccc(C2CC(C(F)(F)F)n3nc(C(=O)N4CCN(c5ccc(F)cc5)CC4)c(Cl)c3N2)cc1OC (stereo not given) | -34 | nt | nt | 88
COc1cc(Cl)c(C)cc1NC(=O)CS(=O)(=O)c1ccc2c(c1)n(C)c(=O)n2C | -15 | nt | nt | 103
NC(=O)Cn1cnc2c(nnn2-c2ccc(OC(F)(F)F)cc2)c1=O | -35 | 91 | 87 | 108
O=C(Nc1cccc(Cn2cccn2)c1)c1csc2ccccc12 | 6 | 107 | 111 | 96
Cc1occc1C(=O)NC1CCN(C)CC1 | 15 | 99 | 110 | 114
CCCc1nc2ccccc2c(N)c1CC | -2 | 82 | 107 | 100
CC(Sc1cccc[n+]1[O-])C(=O)Nc1cccc(Cl)c1 (stereo not given) | -36 | 90 | 74 | nt
Clc1ccsc1-c1ccn[nH]1 | -10 | nt | nt | 97
NC(=O)c1c(NC(=O)/C=C/c2cccs2)sc2c1CCCC2 | -25 | 153 | 74 | 103
O=C(C1COc2cc(S(=O)(=O)NCCc3ccccc3)ccc2O1)N1CCCCC1 (stereo not given) | 0 | 93 | 94 | 97
Cc1ccc(C2c3c(-c4cc(C)ccc4O)n[nH]c3C(=O)N2Cc2ccco2)cc1 (stereo not given) | 1 | 90 | 69 | 106
CC(=Nc1ccccc1Br)c1sc2ccccc2c1O | -23 | nt | nt | 72*
CNS(=O)(=O)c1cccc2nsnc12 | -75 | 113 | 97 | 104
Cc1cccc(NC(=O)c2nnn(-c3cccc(C(F)(F)F)c3)c2N)c1 | nt | 118 | 94 | 102
Cn1c(CO)cnc1S(=O)(=O)Cc1c(Cl)cccc1Cl | -14 | nt | nt | 102
COc1ccc(C2=NN(CCC(=O)NCCCN3CCN(c4ccccc4F)CC3)C(=O)CC2)cc1 | -16 | 99 | 85 | 107
O=C(OCC(=O)N(Cc1ccccc1)C1CCS(=O)(=O)C1)c1cc2c(s1)CCC2 (stereo not given) | -2 | 87 | 95 | nt
CCCc1nn2c(=O)cc(COC(=O)c3ccc4c(c3)OCO4)nc2s1 | nt | 99 | 92 | 106

Some of the entries so far, with each value named.
> Cn1c(CO)cnc1S(=O)(=O)Cc1c(Cl)cccc1Cl
  HCMV NEC inh: -14	Sa growth inh: nt	Sa growth inh second temp: nt	GIV Gai3 FP: 102
> Clc1ccsc1-c1ccn[nH]1
  HCMV NEC inh: -10	Sa growth inh: nt	Sa growth inh second temp: nt	GIV Gai3 FP: 97
> CNS(=O)(=O)c1cccc2nsnc12
  HCMV NEC inh: -75	Sa growth inh: 113	Sa growth inh second temp: 97	GIV Gai3 FP: 104
> Cc1cccc(NC(=O)c2nnn(-c3cccc(C(F)(F)F)c3)c2N)c1
  HCMV NEC inh: nt	Sa growth inh: 118	Sa growth inh second temp: 94	GIV Gai3 FP: 102

Additional results follow.
SMILES | HCMV NEC inh | Sa growth inh | Sa growth inh second temp | GIV Gai3 FP
CC1CCN(S(=O)(=O)c2ccc3c(ccn3CCC(=O)NCCCN3CCOCC3)c2)CC1 | -5 | nt | nt | 94
Cc1cccc(NC(=O)CSc2nnc(CNC(=O)c3c(F)cccc3Cl)o2)c1C | -5 | 111 | 86 | 104
FC(F)(F)c1cccc(-n2nnnc2-c2ccccc2)c1 | -16 | 111 | 91 | 102
c1csc(N2CCCC2)n1 | 4 | 108 | 99 | nt
CCc1ccc(NC(=O)NCCc2c(C)nn(C)c2C)cc1 | -5 | 92 | 90 | 103&102
COc1cccc(CC(=O)Nn2c(-c3ccc(Br)cc3)nc3ccccc3c2=O)c1 | -20 | nt | nt | 106
O=C(NCc1ccco1)c1ccccc1OC(F)F | -12 | 89 | 84 | nt
C/C=C/C(=O)Nc1nc2ccc(OC)cc2s1 | -15 | 98 | 91 | 105
CCS(=O)(=O)Nc1cccc(C(=O)CC2(O)C(=O)Nc3ccc(Br)cc32)c1 (stereo not given) | -4 | 81 | 72 | 95
CCOc1ccc(C(=O)Nc2c(C(=O)Nc3ccccc3OC)oc3ccccc23)cc1OCC | 8 | 91 | 104 | 107
O=C(COc1ccc(-c2nc(-c3ccccc3)no2)cc1)N1CCOCC1 | -24 | nt | nt | 105
COc1ccc(C(=O)NNc2ncnc3c2cnn3-c2ccc(C)c(Cl)c2)cc1 | nt | 108 | 85 | 100
Cc1nn(C)c(C)c1CN(C)C(=O)c1cnn2c1NC(c1ccccc1)CC2C(F)(F)F (stereo not given) | -11 | 101 | 82 | nt
CCCn1c(NC)nc2c1c(=O)n(C)c(=O)n2C | -7 | 85 | 85 | 103
Cc1ccc(NC(=O)Cc2nc(CSc3nnc(-c4ccc5c(c4)OCO5)o3)cs2)cc1 | -14 | 104 | 89 | nt
CCn1c(=O)c(N2CCC(C(=O)NCCCN3CCOCC3)CC2)nc2ccccc21 | -42 | nt | nt | 100
CC(C)C12CN3CC(C(C)C)(CN(C1)C3c1ccc(OCc3ccccc3)cc1)C2=O (stereo not given) | -28 | 104 | 83 | 98
COC(=O)c1ccccc1NC(=O)Cn1ncc2c3ccccc3n(Cc3ccccc3)c2c1=O | 3 | 91 | 75 | 105
C#CC(CCN1CCCCC1)(OC)c1ccccc1 (stereo not given) | -1 | 101 | 100 | 104
O=C(c1ccco1)N1CCN(C(=O)c2ccc(CS(=O)c3ccc(Br)cc3)o2)CC1 (stereo not given) | -23 | 95 | 83 | 106
Cc1noc(C)c1S(=O)(=O)N(C)CC(=O)Nc1ccc(F)cc1 | -2 | 117 | 85 | nt
O=C1NC(=S)S/C1=C\c1ccc(-c2ccc(S(=O)(=O)N3CCOCC3)cc2)o1 | -66 | 18 | 3 | nt
O=c1c2ccccc2nc(-c2ccccc2)n1/N=C/c1ccccc1O | 3 | 56 | 21 | nt
O=C(NCc1ccco1)c1ccc(COCC(F)(F)C(F)F)cc1 | 2 | 100 | 74 | 101
CN1CCN(CCCNC(=O)Cn2c(-c3cccs3)cc3cc(Cl)ccc32)CC1 | nt | 120 | 100 | 108
COc1cccc(OC)c1OCCOc1ccccc1C | -9 | 112 | 99 | 104
c1ccc(-c2nnc(SCCC3OCCCO3)o2)cc1 | nt | 102 | 86 | 103
CC1=C(C#N)C(c2cnc(C)[nH]2)C2=C(CCCC2=O)N1 (stereo not given) | -4 | 102 | 91 | 99
CCOc1ccccc1NC(=O)c1c(NCc2cccs2)sc2c1CCCCC2 | nt | 98 | 97 | 102
COc1ccc(CNC(=O)Cc2c(C)c3cc4c(C)coc4cc3oc2=O)cc1OC | -31 | 97 | 91 | 104
Cc1nn(CC(=O)Nc2cc(F)ccc2F)c(=O)c2cccn12 | -12 | 109 | 87 | 105
CCCNC(=O)Nc1cc(C)on1 | 10 | 114 | 95 | nt
COC(=O)CC1=CC(SCC(=O)Nc2cc(C)[nH]n2)=Nc2ccccc2N1 | -24 | nt | nt | 105
COc1cc(-c2nc(NCc3ccccc3)c3ccccc3n2)cc(OC)c1OC | -9 | nt | nt | 95
CN(C)c1cc(C(F)(F)F)nc2cc(C(C)(C)C)nn12 | -25 | 95 | 90 | 102
COc1cc(CCc2nnc(-c3cccs3)o2)cc(OC)c1OC | -1 | 108 | 97 | 99
Cc1cc(-c2ccccc2)nc2cc(C(N)=O)nn12 | -82 | 128 | 67 | 109
Cc1cn2c(=O)cc(COC(=O)c3ccc(NC(=O)c4ccc(F)cc4)cc3)nc2s1 | nt | 73 | 86 | 101
CC1(c2ccccc2NC(=O)c2cccs2)CC1 | -8 | 100 | 80 | nt
CCc1ccc(NC(=O)c2nnn(-c3ccc4noc(-c5ccccc5)c4c3)c2C)cc1 | -28 | nt | nt | 99
CCOC(=O)Cc1c(-c2ccccc2)c2cc(Cl)ccc2[nH]c1=O | nt | 116 | 94 | 104
O=C1CCN(Cc2ccccc2)C(=O)N1 | nt | 96 | 90 | 104
O=C(Nc1ccc2c(c1)OCO2)c1nnc(C(=O)N2CCCC(C(=O)Nc3cc(F)ccc3F)C2)s1 (stereo not given) | -33 | nt | nt | 109
Cc1cccc(-n2nc(C)c(C(=O)Nc3cc(C)ccc3C)c2-n2cccc2)c1 | nt | 84 | 92 | 101
Nc1c(C(=O)Nc2ccc(OC(F)(F)F)cc2)sc2nc(-c3ccncc3)ccc12 | -10 | 84 | 89 | 139
CC1CCN(C(=O)NC(C(F)(F)F)C(F)(F)F)CC1 | -10 | 98 | 97 | 109
O=C(Nc1c(-c2ccc(F)cc2)nc2ccccn12)c1ccc(F)cc1 | -14 | nt | nt | 105
Cc1ccc(NC(=O)CSc2ncnc3nc(N4CCCCC4)sc23)c(F)c1 | -16 | nt | nt | 123
Cc1oc2c(cc(NS(=O)(=O)c3ccc4c5c(cccc35)C(=O)N4)c3ccccc32)c1C(=O)OC(C)C | -32 | nt | nt | 110
FC(F)(F)c1cnc(-c2cnc(-c3cccnc3)nc2)c(Cl)c1 | 4 | nt | nt | 106
Cc1ccccc1COC(=O)CCC1=NS(=O)(=O)c2ccccc2N1 | -22 | 90 | 91 | 105

Record cards (already shown).
Cc1oc2c(cc(NS(=O)(=O)c3ccc4c5c(cccc35)C(=O)N4)c3ccccc32)c1C(=O)OC(C)C across the screens: HCMV NEC inh: -32; Sa growth inh: nt; Sa growth inh second temp: nt; GIV Gai3 FP: 110
CC1(c2ccccc2NC(=O)c2cccs2)CC1 across the screens: HCMV NEC inh: -8; Sa growth inh: 100; Sa growth inh second temp: 80; GIV Gai3 FP: nt
Cc1ccc(NC(=O)CSc2ncnc3nc(N4CCCCC4)sc23)c(F)c1 across the screens: HCMV NEC inh: -16; Sa growth inh: nt; Sa growth inh second temp: nt; GIV Gai3 FP: 123
